# Assay outcomes: PubChem, Fisher Drug Discovery Resource Center
# NPYLR7 ag – mosquito NPYLR7 agonism; HEK293T NPYLR7/Galpha15, GCaMP6s calcium fluorescence; activation, % at 10 µM; 270,000 compounds, 0.15% hits; AID 1259423; in the data active means activation above about 40%;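 further: 0% = vehicle and 100% = reference agonist at the receptor; some compounds past the cut are filed as inactive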
# NPYLR7 ag max-min – recorded beside NPYLR7 ag, whose call it bears; activation, %; measured here: Max-Min RFU normalised activation; some inactives read as strong as hits;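 span of the calcium signal over five minutes; 0% = vehicle and 100% = native peptide agonist; compound fluorescence can raise it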
# * marks the source's active call; other numbers are inactive results; & = joins results of further samples.
SMILES,NPYLR7 ag,NPYLR7 ag max-min
O=[N+]([O-])c1c(NCc2ccc(F)cc2)nc2sccn12,-3,-4
CC(=O)c1ccc(NC(=O)CSc2nc(-c3ccccc3C)nc3c2c(=O)n(C)c(=O)n3C)cc1,-3,-9
O=C(N=Nc1c(O)[nH]c2ccc(F)cc12)c1ccccc1Br,-1,9
Cc1ccc2[nH]c(O)c(N=NC(=O)c3ccc4ccccc4n3)c2c1,-5,-6
CCOC(=O)c1nn(-c2ccccc2)c(=O)cc1N1CCN(c2cccc(C(F)(F)F)c2)CC1,7,2
OC(c1ccc2c(c1)CCCN2)(c1nc2ccccc2s1)C(F)(F)F (configuration not stated),12,8
Cc1nc(C(=O)NCCCSc2nnc(C)s2)cs1,9,-5
COC(=O)C(=O)N1CCc2cc(OC)c(OC)cc2C1C(C)C (configuration not stated),25,8
C=CCn1cc(CN2CCC(O)(c3ccccc3C)C2)c(C)n1 (configuration not stated),20,5
CCS(=O)(=O)NC(CCSC)C(=O)NC1CCCCC1 (configuration not stated),4,8
COc1ccc(CCN2CC(NCc3nc(C)c(C)nc3C)CC2=O)cc1 (configuration not stated),-13,-13
O=C(NCC(F)(F)C(F)(F)F)c1ccc(-c2ccc(F)cc2)s1,8,6
CC1CCC(N(CCn2cncn2)CC2CCCO2)CC1 (configuration not stated),8,7
C=CCN(Cc1ccncc1)C(=O)C1=C(C)NC(=O)NC1c1cccnc1 (configuration not stated),3,-2
O=C(N/N=C\c1ccoc1)c1cccc(OC(F)(F)C(F)F)c1,0,-1
FC(F)c1nnc(NCCCn2cccn2)s1,3,2
COc1cccc(C(=O)Oc2coc(CSc3ncccn3)cc2=O)c1,-22,-20
CCOC(=O)COc1ccc2c(=O)c(-c3ccc(F)cc3)c(C)oc2c1,-2,-9
Cc1ccc(CN(C)C(C)C(=O)NCCc2ccc(S(N)(=O)=O)cc2)c(C)c1 (configuration not stated),14,6
COCCCNC(=O)c1nn(-c2ccc(OC)c(OC)c2)c(=O)n(Cc2cccc(C(F)(F)F)c2)c1=O,-2,3
COc1ccc(C(=O)Nc2nccs2)c(OC)c1,10,1
CN1C(=O)N(Cc2nc3ccc(Cl)cc3n2CCO)C(=O)C12CCCCC2,-3,-2
O=C(Cn1cnc2sc3c(c2c1=O)CCCC3)N1CCCC1,-1,2
O=S(=O)(NCc1ccc2c(c1)OCO2)c1c(Cl)cc(Br)cc1Cl,-2,-6
C=CC[C@@H]1CC=C[C@@H](C)N1C(=O)CCc1c(C)nn(C)c1C,1,0
CSc1nc(C)c(C2=CC(c3ccc(Br)cc3)C(C#N)C(=N)S2)cc1C#N (configuration not stated),1,1
COc1ccccc1C(=O)N(Cc1c(-c2cccc(C)c2)noc1N1CCOCC1)CC1CC1,4,8
N#CCSc1nnc2[nH]c(=O)cc(N)n12,3,1
CC(C)COc1ncnc2c1sc1nc3c(cc12)COC(C)(C)C3,4,2
CN(CCc1ccccc1)C1(C(=O)N2CCCNCC2)Cc2ccccc2C1,8,7
CCOC(=O)c1cc(-c2ccc(OC)cc2)n(C2CCN(C(=O)c3sc4ccccc4c3Cl)CC2)n1,3,5
CCc1ccc(NCC(O)Cn2c3ccccc3n3c(=O)cc(C)c(C#N)c23)cc1 (configuration not stated),1,6
CC(O)(CN1CCN(CCc2cccs2)CC1)c1cccc(C(F)(F)F)c1 (configuration not stated),2,0
O=c1c(-c2ccc(F)cc2)[n+]([O-])c2ccccc2n1OCc1ccc(Oc2ccccc2)cc1,-5,-6
O=C(NC1C=CS(=O)(=O)C1)c1sc2ccccc2c1Cl (configuration not stated),-3,-4
CN(C)CCn1ccc(NCc2cc3ccccc3o2)n1,9,5
CCN(CC)C(=O)[C@@H]1C[C@H](N)CN1C(=O)c1cnc(-c2ccccc2)nc1,0,-3
CCc1cccc2c(C(CC(=O)NCCc3ccc(Cl)cc3Cl)c3ccccc3C(F)(F)F)c[nH]c12 (configuration not stated),-2,10
CC(C)N(Cc1nnc(-c2ccccc2)o1)S(=O)(=O)c1ccc2c(c1)CCCC2,-2,0
CC(=O)Oc1ccc(C2C(C(=O)OCc3ccccc3)=C(C)NC3=C2C(=O)CCC3)cc1 (configuration not stated),2,4
CCc1nc(Cn2ccnc2-c2c(C)cc(C)c(C(C)=O)c2C)no1,4,2
CCOC(=O)C1(C)CCCN1C(=O)c1ccc(OC)c(F)c1 (configuration not stated),-1,-3
Cc1ccc(C)c2c1sc(=NC(=O)c1ccc(S(C)(=O)=O)cc1)n2C,4,2
c1ccc(C2=NN3C(C2)c2ccccc2OC3c2ccccc2)cc1 (configuration not stated),-1,-3
O=C(N1CCC2(CCOCC2)CC1)C1(S(=O)(=O)c2ccccc2)CC1,6,1
CN(C)N=Cc1ccccn1,5,3
CCOc1ccc(OCCOc2cccc(C(F)(F)F)c2)cc1,28,14
Cn1cc(S(=O)(=O)N2CCN(Cc3cc(Cl)c4c(c3)OCCCO4)CC2)cc1C(N)=O,9,7
CC(C)C(=O)NC1CCN(c2nc3ccccc3n2C2CCCCC2)CC1,7,5
COc1ccc(S(=O)(=O)N=c2sc3ccccc3n2C(F)F)cc1,8,5
CCN(CC)CCCn1c2c(c(SCC(=O)Nc3cccc(C(F)(F)F)c3)nc1=O)CCC2,2,10
CC(=O)c1ccc(NC(=O)CSc2ccc(-c3sc(-c4ccc(F)cc4)nc3C)nn2)cc1,4,-6
CC(C)NC(=O)c1cnc(N2CCN(Cc3ccccc3)C2=O)o1,-1,-4
CN(C)c1cnn(CC(=O)N(Cc2c(F)cccc2Cl)C2CC2)c(=O)c1,24,6
CCCCCSc1nc(N2CCOCC2)c2c(c1C#N)CC(C)(C)OC2,4,0
CC1=C(C(=O)Nc2ccccc2C)C(c2cccnc2)n2nc(SCc3ccccc3F)nc2N1 (configuration not stated),12,8
O=C(Nc1ccc(-c2onc3c2CCCC3)cc1)c1cccc(OC(F)(F)F)c1,2,1
CCOc1ccccc1C1NC(=S)N(c2ccccc2OC)C(C)=C1C(=O)Nc1cc(C)on1 (configuration not stated),4,8
Cc1nn(C)c(Cl)c1CN(C)CC1CCN(CCc2ccc(Cl)cc2)CC1,1,-1
CCOc1cc(/C=N\n2c(-c3ccco3)csc2=NC(C)C)ccc1O,-1,-3
# Other structures:
SMILES,NPYLR7 ag,NPYLR7 ag max-min
COC(=O)C1=C(C)NC(C)=C(C(=O)OCCSc2ccccc2)C1C (configuration not stated),-16,-23
CC1C(=O)N(c2cccc(C(F)(F)F)c2)CCN1C(=O)Cc1ccccc1 (configuration not stated),-1,4
Cc1ccc(C(C2Sc3nc(C)nn3C2=O)N2CCC(O)CC2)cc1 (configuration not stated),4,3
COc1ccc(-c2nn(-c3ccc(F)cc3)c(OC(C)=O)c2-c2ccc(N)cc2)cc1OC,9,10
Cc1c(C(C)NC(=O)C2CC2c2cccc(Br)c2)cnn1C (configuration not stated),-14,-17
Cc1ccccc1Oc1cc(C(C)C)nc(SCc2ccc(F)cc2)n1,3,9
CCCCCNC(=O)c1csc(COC(=O)c2ccccc2)n1,-8,-17
COc1cc(OC)cc(C(=O)N2CCC3(CC2)SCCN3C(=O)c2cccc([N+](=O)[O-])c2)c1,-11,-9
CCc1cccc2c(C(CC(=O)NCc3ccc4c(c3)OCO4)c3cccc(F)c3)c[nH]c12 (configuration not stated),8,22
COc1cccc(C(=O)NCC2CCCN(Cc3cccc4nonc34)C2)c1OC (configuration not stated),18&-8,2&-8
CCCC(=O)Nc1oc2c(C)cccc2c(=O)c1-c1ccc(OC)c(OC)c1,3,-2
OC(C1CCCCN1)C1CC1(c1ccccc1)c1ccccc1 (configuration not stated),1,-3
COCCn1cc(NC(=O)NC2CCCCC2)c2ccccc21,15,5
CCCCCCNC(=O)n1cc(F)c(=O)[nH]c1=O,-5&-11,-11&-18
CC(C)CC(=O)N1CCCC1C(=O)Nc1nnc(-c2ccc(Cl)cc2)s1 (configuration not stated),22,26
CNc1cc(-c2cccc(C(C)O)n2)c2cc[nH]c2n1 (configuration not stated),23,11
Oc1ccc2ccccc2c1C=Nc1ccc(F)c(F)c1F,0,-1
CCC(=O)Nc1ccc(-c2ccc(N3CCCC3)nn2)cc1,1,-1
O=C(NCc1ccccc1OC(F)(F)F)c1cnsn1,0,0
Cc1cc(NC(=O)c2ccc(F)cc2)n(CCC#N)n1,1,-2
Cc1ccccc1-c1nc(CN(Cc2c(C)nn(C)c2C)C2CC2)c(C)o1,-3,-4
O=C(NCc1nc2ccc(Cl)cc2[nH]1)C1CCOC1 (configuration not stated),12,7
Cc1cc(=O)n2ncnc2n1CC1(O)CCC(C)CC1 (configuration not stated),14,11
COC(=O)C(c1ccccc1Cl)N1CCN(C(=O)Nc2ccc(F)cc2)CC1 (configuration not stated),0,6
COCC(=O)Nc1ccc(-n2nc(OCC(C)C)nc2-c2cccc(OC)c2)cc1,-4,2
CCOc1ccccc1NC(=O)c1c(NC(=O)c2ccco2)sc2c1CCCC2,2,6
O=C(c1ccccc1Cl)N1CCN(CCN2C(=O)CSC2c2cccc(F)c2)CC1 (configuration not stated),9,19
O=C1CN(C(=O)COc2ccc3ccccc3c2)C(c2ccc(F)cc2)c2cc(Cl)ccc2N1 (configuration not stated),6,5
O=C1CCCN1CCCN=c1c([N+](=O)[O-])nn(-c2ccc(Cl)cc2)n1O,0,-1
O=C1C2C3C=CC(C3)C2C(=O)N1c1cc([N+](=O)[O-])ccc1Cl (configuration not stated),7,5
N#CC1=C(NC(=O)Cc2ccccc2)c2ccccc2CC12CCCC2,1,-4
NC(=O)c1ccnc(NCC2(c3ccccc3)CCC2)c1,2,55
CC1CC(C)CN(C(=O)CN2C(=O)NC(C)(c3ccccc3)C2=O)C1 (configuration not stated),6,3
CCOc1ccccc1OCC(=O)N/N=C1\CCCC(C)C1 (configuration not stated),-1,-3
O=C(NC1CCCCC1)C(=O)NC1CCCCC1,7,2
Cc1cc(Nc2ccc3c(n2)C(=O)N([C@H](C)C(=O)NCc2cccnc2)C3)n(C)n1,-3,-4
O=c1c2c(nc3c(-c4ccccc4)c(-c4ccccc4)[nH]n13)CCC2,-18,-20
c1cnc(N2CCN(Cc3cc4n(n3)CCNC4)CC2)cn1,8,5
COCC1CCN(c2nc3nonc3nc2NCc2ccccc2)C1 (configuration not stated),-2,-4
Cc1ccc(CN(Cc2ccccc2)C(=O)CN(C(=O)Nc2ccccc2C(F)(F)F)C(C)C)s1,-2,-10
CC1Cc2nc(SCC(N)=O)n(Cc3ccccc3)c(=O)c2S1 (configuration not stated),7,3
CC(=O)C(C)n1c(=O)c2c(nc3n(-c4cccc(Cl)c4)c(C)c(C)n23)n(C)c1=O (configuration not stated),0,5
Cc1cc(=O)[nH]c(-n2nc(C)cc2NC(=O)c2cc(C)oc2C)n1,9,3
CC(C)(C)c1ncc2c(n1)CN(C(=O)C(Cc1cnc[nH]1)n1cccc1)C2 (configuration not stated),-6,-5
CC(C)c1nccc(CN(C)Cc2cccc3cnccc23)n1,-5,-8
CCOc1ccc(OCC(=O)OCC(=O)NC(C)CC)cc1 (configuration not stated),7,1
CCN(CC)C(=O)CCC1(Cc2ccc(F)c(OC)c2)CCC(=O)N1 (configuration not stated),-2,-9
Cc1cc(C)c2c3c(cn2n1)c(=O)n(C)c(=O)n3C,13,5
Cc1ccc(C)c(N2CCN(c3ccc(S(=O)(=O)C(C)C)nn3)CC2)c1,-4,-6
Cc1cc(C(=O)N2CCN(c3nc4ccc(F)cc4s3)CC2)no1,-7,-7
CCN(CC)C(=O)c1cncc(-c2ccc(Oc3ccccc3)cc2)c1,8,7
O=C(O)c1ccc(-c2cccc(CN3CCOCC3)c2)c(Cl)c1,8,5
Cc1ccc(C=C(C(=O)O)c2ccc(S(=O)(=O)N3CCCC3)s2)s1,7,2
Cc1ccc(-c2nc3cc(C)ccn3c2NC(C)(C)C)cc1,2,9
CC(=O)Nc1ccc(S(=O)(=O)Nc2ccc(-c3ccc4nnc(C)n4n3)cc2)cc1,-12,-9
Cc1ccc(F)c(CC(=O)N2CCOC(c3ccccc3)C2)c1F (configuration not stated),26,36
CCOC(=O)C1CCN(C(=O)Cc2nnc(Nc3cccc(C)c3)s2)CC1,-9,-11
CCC(=O)Nc1c(-c2cccc(F)c2)nc2ccccn12,-3,4

# Exported with two lines to a compound: part of the list above.
# Values in the order – NPYLR7 ag, NPYLR7 ag max-min
- O=[N+]([O-])c1c(NCc2ccc(F)cc2)nc2sccn12
 : -3, -4
- CC(=O)c1ccc(NC(=O)CSc2nc(-c3ccccc3C)nc3c2c(=O)n(C)c(=O)n3C)cc1
 : -3, -9
- O=C(N=Nc1c(O)[nH]c2ccc(F)cc12)c1ccccc1Br
 : -1, 9
- Cc1ccc2[nH]c(O)c(N=NC(=O)c3ccc4ccccc4n3)c2c1
 : -5, -6
- CCOC(=O)c1nn(-c2ccccc2)c(=O)cc1N1CCN(c2cccc(C(F)(F)F)c2)CC1
 : 7, 2
- OC(c1ccc2c(c1)CCCN2)(c1nc2ccccc2s1)C(F)(F)F (configuration not stated)
 : 12, 8
- Cc1nc(C(=O)NCCCSc2nnc(C)s2)cs1
 : 9, -5
- COC(=O)C(=O)N1CCc2cc(OC)c(OC)cc2C1C(C)C (configuration not stated)
 : 25, 8
- C=CCn1cc(CN2CCC(O)(c3ccccc3C)C2)c(C)n1 (configuration not stated)
 : 20, 5
- CCS(=O)(=O)NC(CCSC)C(=O)NC1CCCCC1 (configuration not stated)
 : 4, 8
- COc1ccc(CCN2CC(NCc3nc(C)c(C)nc3C)CC2=O)cc1 (configuration not stated)
 : -13, -13
- O=C(NCC(F)(F)C(F)(F)F)c1ccc(-c2ccc(F)cc2)s1
 : 8, 6
- CC1CCC(N(CCn2cncn2)CC2CCCO2)CC1 (configuration not stated)
 : 8, 7
- C=CCN(Cc1ccncc1)C(=O)C1=C(C)NC(=O)NC1c1cccnc1 (configuration not stated)
 : 3, -2
- O=C(N/N=C\c1ccoc1)c1cccc(OC(F)(F)C(F)F)c1
 : 0, -1
- FC(F)c1nnc(NCCCn2cccn2)s1
 : 3, 2
- COc1cccc(C(=O)Oc2coc(CSc3ncccn3)cc2=O)c1
 : -22, -20

# These rows are one share of the data. The share of hits here may be higher or lower than overall.
